AF4-AF9 inh = inhibitors of AF4 peptide binding to AF9, primary screen, biochemical, AlphaScreen, biotin-AF4 peptide, FLAG-AF9, single point | Protein AF-9 (Homo sapiens), P42568 | inhibition, % at 10 µM | actives 0.47% (n = 350,000);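 active = every replicate reaching a set inhibition limit, whatever the replicate mean, cut at about 25% in these data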;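 also: 0% = plate neutral control median and 100% = total signal loss; the record names both 10 and 1 µM as test concentration; the first replicate is given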
Target sequence (P42568 whole entry, looked up): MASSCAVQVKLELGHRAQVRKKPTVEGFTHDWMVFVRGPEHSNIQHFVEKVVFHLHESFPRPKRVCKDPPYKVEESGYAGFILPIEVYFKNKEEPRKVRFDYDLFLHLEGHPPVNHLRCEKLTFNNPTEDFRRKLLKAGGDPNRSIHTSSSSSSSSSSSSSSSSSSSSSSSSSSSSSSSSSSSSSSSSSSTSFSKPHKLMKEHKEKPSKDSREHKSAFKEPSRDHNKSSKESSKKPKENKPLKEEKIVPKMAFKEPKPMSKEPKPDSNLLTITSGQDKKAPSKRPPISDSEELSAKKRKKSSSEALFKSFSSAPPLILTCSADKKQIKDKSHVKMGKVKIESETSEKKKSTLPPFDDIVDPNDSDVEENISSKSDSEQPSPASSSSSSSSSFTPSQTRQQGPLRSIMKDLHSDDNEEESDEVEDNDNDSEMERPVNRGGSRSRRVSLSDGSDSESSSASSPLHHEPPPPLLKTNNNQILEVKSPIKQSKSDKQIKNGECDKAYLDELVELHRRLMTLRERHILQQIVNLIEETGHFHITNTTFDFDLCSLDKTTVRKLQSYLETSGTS
* marks the source's active call; other numbers are inactive results. A portion of the library; rates above refer to the full screens.

SMILES	AF4-AF9 inh
O=C(C[C@H]1CC[C@H]2[C@@H](COC[C@@H](O)CN2C(=O)c2ccc(F)cc2)O1)Nc1ccc(-c2ccccc2)cc1	4.6
C[C@@H]1CN([C@@H](C)CO)C(=O)c2cc(NC(=O)c3ccncc3)ccc2O[C@@H](C)CCCCO[C@H]1CN(C)Cc1ccc2c(c1)OCO2	0.2
CC(C)NC(=O)N1[C@@H](CO)[C@@H](c2ccccc2)C12CN(C(=O)Cc1ccccc1)C2	-22
Cc1noc(C)c1NC(=O)N(C)C[C@@H]1Oc2c(NS(=O)(=O)c3ccc(F)cc3)cccc2C(=O)N([C@H](C)CO)C[C@@H]1C	-0.5
C[C@H]1CN([C@@H](C)CO)C(=O)c2cc(-c3ccccc3)cnc2O[C@H]1CN(C)C(=O)C1CCOCC1	-2.8
COc1ccc(NC(=O)Nc2ccc3c(c2)[C@H]2C[C@@H](CC(=O)NCCc4ccccc4)O[C@@H](CO)[C@H]2O3)cc1	-11
CCCNC(=O)N1[C@H](CO)[C@@H](c2ccccc2-c2ccc(C)cc2)[C@@H]1C#N	-1.0
Cc1ccc(S(=O)(=O)N2CCC(=O)N([C@H](COCc3cccc(Cl)c3)C(C)C)CC2)cc1	-1.6
C[C@@H]1CN([C@H](C)CO)C(=O)CCCn2cc(nn2)CO[C@H]1CN(C)Cc1ccccc1C(=O)O	-1.2
CO[C@@H]1CN(C)C(=O)c2ccc(NC(=O)Nc3cccc(F)c3)cc2OC[C@H](C)NC[C@@H]1C	3.3
O=C(COC(=O)c1cc(Br)ccc1Cl)NC1CC1	-12
COc1ccc(CN(C)C[C@@H]2Oc3ccc(NS(=O)(=O)c4ccc(OC)cc4)cc3C(=O)N([C@H](C)CO)C[C@@H]2C)cc1	-0.9
C[C@@H]1CN([C@@H](C)CO)C(=O)c2cccc(NS(=O)(=O)c3ccc(F)cc3)c2O[C@@H]1CN(C)C(=O)NC1CCCCC1	-1.7
CC(C)NC(=O)Nc1ccc2c(c1)C(=O)N([C@@H](C)CO)C[C@@H](C)[C@@H](CN(C)C)OCCCC[C@H](C)O2	-0.6
COc1ccc(S(=O)(=O)Nc2cccc3c2O[C@H](CN(C)Cc2ccc(C(F)(F)F)cc2)[C@@H](C)CN([C@H](C)CO)C3=O)cc1	3.4
CCc1nc2ccc(C(=O)N(C)C(C)C)cn2c1N(CC)Cc1cccc(Br)c1	-1.6
O=C(O)C[C@H]1CC[C@H](NC(=O)Nc2ccccc2)[C@H](CO)O1	-11
COCC(=O)N(C)C[C@H]1Oc2ncc(C#Cc3ccc(OC)cc3)cc2C(=O)N([C@H](C)CO)C[C@@H]1C	0.1
C[C@@H]1CCCCO[C@@H](CN(C)Cc2ccccc2)[C@@H](C)CN([C@H](C)CO)C(=O)c2cc(NC(=O)Nc3ccc(F)cc3)ccc2O1	2.0
COCC(=O)Nc1ccc2c(c1)C(=O)N(C)C[C@H](OC)[C@H](C)CN(C(=O)c1ccccn1)[C@@H](C)CO2	3.5
C[C@@H]1CN([C@H](C)CO)S(=O)(=O)c2ccc(-c3ccccc3)cc2O[C@@H]1CN(C)C(=O)Cc1ccccc1	-2.2
C[C@@H]1CN([C@@H](C)CO)C(=O)CCCn2nncc2CO[C@H]1CN(C)S(=O)(=O)c1ccccc1C#N	1.3
O=C(Nc1cccc(S(=O)(=O)N2CCOCC2)c1)c1cc(S(=O)(=O)N2CCOCC2)c(Cl)cc1Cl	0.8
C[C@H](NC(=O)C[C@@H]1C[C@H]2c3cc(NC(=O)C4CCC4)ccc3O[C@H]2[C@H](CO)O1)c1ccccc1	2.7
CCCC#Cc1ccc2c(c1)O[C@@H](CN(C)C(=O)c1cccnc1)[C@H](C)CN([C@H](C)CO)S2(=O)=O	-3.2
COc1ccc(S(=O)(=O)N(C)C[C@@H]2Oc3c(NS(=O)(=O)c4cn(C)cn4)cccc3C(=O)N([C@H](C)CO)C[C@@H]2C)cc1	-1.3
CC=Cc1ccc2n(c1=O)C[C@H]1[C@H](CO)[C@@H](C(=O)NCc3ccncc3)N(Cc3ccncc3)[C@@H]21 (mixture of isomers)	-10
Cc1noc(C)c1NC(=O)Nc1ccc2c(c1)CC(=O)N([C@H](C)CO)C[C@H](C)[C@@H](CN(C)S(C)(=O)=O)O2	-0.9
O=C(NCc1nnnn1-c1ccc(Cl)cc1)C1CC(=O)N(c2ccc(F)cc2)C1 (stereo not given)	-0.9
C[C@@H]1CN([C@H](C)CO)C(=O)c2cc(C#Cc3ccc(F)cc3)cnc2O[C@@H]1CN(C)S(C)(=O)=O	-0.3
COCC(=O)Nc1ccc2c(c1)OC[C@@H](C)N(Cc1ccccc1F)C[C@@H](C)[C@H](OC)CN(C)C2=O	4.1
Cc1noc(C)c1NC(=O)N(C)C[C@@H]1Oc2ccc(N(C)C)cc2C(=O)N([C@H](C)CO)C[C@@H]1C	-2.0
COc1ccc2c3c([nH]c2c1)[C@H](CO)N(C(=O)c1ccc(F)cc1)CC31CN(C(=O)Nc2ccc(F)cc2)C1	1.2
CCCC#Cc1ccc2c(c1)O[C@H](CN(C)Cc1cccnc1)[C@@H](C)CN([C@H](C)CO)S2(=O)=O	3.3
O=C(C[C@@H]1CC[C@@H]2[C@H](COC[C@H](O)CN2C(=O)Nc2ccc(Cl)cc2)O1)NCCc1ccncc1	-1.2
COc1ccc(NC(=O)N(C)C[C@H]2Oc3ccc(NC(=O)Cn4cnnn4)cc3CC(=O)N([C@H](C)CO)C[C@H]2C)cc1	-2.9
CC(C)(C)[S@](=O)N1Cc2cc(C(=O)N3CCCCC3)nc(-c3cccc(-c4ccc(F)cc4)c3)c2[C@@H]1CCO	0.6
CC(=O)N1CC[C@@H]2[C@H]1c1cc(-c3ccc(C#N)cc3)ccc1N(C)[C@H]2CO	-1.5
CCc1nc2c(OCc3ccc(C(F)(F)F)cc3)cccn2c1N(C=O)Cc1ccc(OC)cc1	1.2
O=C(C1CC1)N1CC2(C1)[C@@H](c1ccccc1)[C@@H](CO)N2C(=O)c1cccnc1	-6.8
O=C1CCCCC1Nc1ccc(Br)cc1 (stereo not given)	-16
O=C(Nc1ccccc1)N1CCCCN2[C@H](CO)[C@H](c3ccc(-c4ccncc4)cc3)[C@H]2C1	2.7
C[C@H]1CN([C@@H](C)CO)C(=O)c2cc(C3=CCCCC3)cnc2O[C@@H]1CN(C)C(=O)Nc1cccc(F)c1	0.0
C[C@@H]1CN([C@@H](C)CO)C(=O)c2cc(C#CC(C)(C)O)cnc2O[C@H]1CN(C)Cc1cncnc1	-2.3
C[C@@H]1CN([C@@H](C)CO)C(=O)Cc2cc(NC(=O)Nc3cccc4ccccc34)ccc2O[C@H]1CN(C)S(=O)(=O)c1ccccc1	-1.5

No new results follow: entries from further up.
SMILES	AF4-AF9 inh
O=C(C[C@H]1CC[C@H]2[C@@H](COC[C@@H](O)CN2C(=O)c2ccc(F)cc2)O1)Nc1ccc(-c2ccccc2)cc1	4.6
C[C@@H]1CN([C@@H](C)CO)C(=O)c2cc(NC(=O)c3ccncc3)ccc2O[C@@H](C)CCCCO[C@H]1CN(C)Cc1ccc2c(c1)OCO2	0.2
CC(C)NC(=O)N1[C@@H](CO)[C@@H](c2ccccc2)C12CN(C(=O)Cc1ccccc1)C2	-22
Cc1noc(C)c1NC(=O)N(C)C[C@@H]1Oc2c(NS(=O)(=O)c3ccc(F)cc3)cccc2C(=O)N([C@H](C)CO)C[C@@H]1C	-0.5
C[C@H]1CN([C@@H](C)CO)C(=O)c2cc(-c3ccccc3)cnc2O[C@H]1CN(C)C(=O)C1CCOCC1	-2.8
COc1ccc(NC(=O)Nc2ccc3c(c2)[C@H]2C[C@@H](CC(=O)NCCc4ccccc4)O[C@@H](CO)[C@H]2O3)cc1	-11
CCCNC(=O)N1[C@H](CO)[C@@H](c2ccccc2-c2ccc(C)cc2)[C@@H]1C#N	-1.0
Cc1ccc(S(=O)(=O)N2CCC(=O)N([C@H](COCc3cccc(Cl)c3)C(C)C)CC2)cc1	-1.6
C[C@@H]1CN([C@H](C)CO)C(=O)CCCn2cc(nn2)CO[C@H]1CN(C)Cc1ccccc1C(=O)O	-1.2
CO[C@@H]1CN(C)C(=O)c2ccc(NC(=O)Nc3cccc(F)c3)cc2OC[C@H](C)NC[C@@H]1C	3.3
O=C(COC(=O)c1cc(Br)ccc1Cl)NC1CC1	-12

Continuation.
SMILES	AF4-AF9 inh
Cc1cccc(C)c1NC(=O)C1(C)CSCC(=O)N1Cc1ccco1 (stereo not given)	1.5
CCCNC(=O)N(C)C[C@@H]1Oc2cc(C#CC3CC3)ccc2S(=O)(=O)N([C@H](C)CO)C[C@@H]1C	2.1
C[C@@H]1CCCCO[C@@H](CN(C)Cc2ccccc2)[C@@H](C)CN([C@@H](C)CO)C(=O)c2cc(NC(=O)Nc3ccccc3)ccc2O1	10
CCCC#Cc1ccc([C@@H]2[C@@H](CO)N3CCCCN(CC4CC4)C[C@H]23)cc1	8.0
C[C@@H]1CCCCO[C@H](CN(C)S(=O)(=O)c2ccccc2)[C@@H](C)CN([C@@H](C)CO)C(=O)c2cc(NC(=O)Nc3ccc(C(F)(F)F)cc3)ccc2O1	2.9
C[C@@H]1CN([C@@H](C)CO)C(=O)c2cc(NC(=O)C3CCCCC3)ccc2O[C@H]1CN(C)Cc1ccc2c(c1)OCO2	-0.7
O=C(C[C@@H]1CC[C@@H]2[C@H](COC[C@@H](O)CN2C(=O)Nc2ccc(C(F)(F)F)cc2)O1)NCC1CCCCC1	-1.8
COc1ccc(NC(=O)Nc2cccc3c2O[C@H](CN(C)C)[C@H](C)CN([C@@H](C)CO)C3=O)cc1	-1.0
COc1ccc(S(=O)(=O)N(C)C[C@H]2Oc3c(NC(=O)NC(C)C)cccc3C(=O)N([C@@H](C)CO)C[C@@H]2C)cc1	-2.4
C[C@@H]1CN([C@@H](C)CO)C(=O)c2cc(-c3cccc(F)c3)cnc2O[C@@H]1CN(C)C(=O)Nc1cc(F)ccc1F	3.2
O=C(C[C@H]1CC[C@H]2[C@@H](COC[C@H](O)CN2Cc2cc(F)ccc2F)O1)NCc1ccc(F)cc1	3.0
COc1cccc(C(O)c2nc(-c3cncnc3)cs2)c1 (stereo not given)	0.3
C[C@H](CO)N1C[C@H](C)[C@H](CN(C)C(=O)Nc2ccc3c(c2)OCO3)OCCCC[C@H](C)Oc2ccc(NC(=O)c3ccncc3)cc2C1=O	-2.4
Cc1ccc(S(=O)(=O)Nc2ccc3c(c2)C(=O)N([C@@H](C)CO)C[C@@H](C)[C@H](CN(C)CC2CC2)O3)cc1	0.0
COC(=O)C[C@H]1C=C[C@@H](C(C(=O)OC)C(=O)OC)CN1C(C)=O	-2.2
Cc1ccc([C@H]2N[C@]3(CCCN(Cc4ccc(F)cc4)C3=O)[C@H]3C(=O)N(C)C(=O)[C@@H]23)cc1	-1.3
COc1ccc(CN2C(=O)C(CC(=O)NCCCCc3ccccc3)CC(C(=O)N3CCCCCC3)=C2C)cc1 (stereo not given)	-2.5
CCc1nc2c(OCCOc3ccc(F)cc3)cccn2c1N(C)C(=O)c1ccc(OC)cc1	1.5
C[C@@H]1CCCCO[C@@H](CN(C)CC2CCCCC2)[C@H](C)CN([C@H](C)CO)C(=O)c2cc(NS(C)(=O)=O)ccc2O1	-12
C[C@H]1CN([C@@H](C)CO)C(=O)c2cc(C#Cc3ccc(F)cc3)cnc2O[C@H]1CN(C)C	7.4
COc1ccc2c3c(n(C)c2c1)[C@H](CO)NCC31CCN(C(=O)CC2CC2)CC1	4.1
C[C@H](CO)N1C[C@H](C)[C@H](CN(C)Cc2cccnc2)Oc2cc(Br)ccc2S1(=O)=O	-5.2
CCS(=O)(=O)Nc1ccc2c(c1)C(=O)N(C)C[C@H](OC)[C@@H](C)CN[C@H](C)CO2	-4.7
CN1C(=O)c2cc(NC(=O)c3ccc(F)cc3)ccc2OC[C@H]2O[C@H](CC(=O)N3CCOCC3)CC[C@H]21	2.1
CCCC#Cc1cnc2c(c1)C(=O)N([C@H](C)CO)C[C@@H](C)[C@H](CN(C)C(=O)c1cnccn1)O2	-3.7
C[C@H](CO)N1C[C@H](C)[C@@H](CN(C)C(=O)Nc2ccc(F)cc2)Oc2ccc(NS(=O)(=O)c3ccccc3)cc2C1=O	-0.1
C[C@H]1CN([C@@H](C)CO)C(=O)c2cc(C#Cc3ccccc3F)cnc2O[C@H]1CN(C)C(=O)Cc1ccccc1	1.2
CC(C)NC(=O)Nc1ccc2c(c1)C(=O)N([C@H](C)CO)C[C@@H](C)[C@@H](CN(C)S(=O)(=O)c1ccccc1)O2	-0.9
Cc1ccc(-c2ccc3c(c2)O[C@@H](CN(C)C(=O)C2CCC2)[C@@H](C)CN([C@H](C)CO)S3(=O)=O)cc1	3.7
C[C@@H]1CN([C@H](C)CO)C(=O)c2cc(NC(=O)c3ccncc3)ccc2O[C@@H](C)CCCCO[C@@H]1CN(C)C(=O)Nc1cccc2ccccc12	-13
C/C=C/c1ccc([C@H]2[C@@H](CO)N3CCCCN(C)C[C@H]23)cc1	1.6
C[C@@H]1CN([C@H](C)CO)C(=O)c2cc(NC(=O)Nc3ccc(C(F)(F)F)cc3)ccc2O[C@@H]1CN(C)Cc1ccc(Cl)c(Cl)c1	1.2
CO[C@@H]1CN(C)C(=O)c2cc(NC(=O)CC(F)(F)F)ccc2OC[C@@H](C)N(S(=O)(=O)c2cn(C)cn2)C[C@@H]1C	-2.9
COc1ccc(C(=O)Nc2ccc3c(c2)C(=O)N(C)[C@@H]2CC[C@H](CC(=O)NCC4CC4)O[C@@H]2CO3)cc1	-2.9
O=C(C[C@@H]1CC[C@H](NS(=O)(=O)c2ccc(F)cc2)[C@H](CO)O1)NCCN1CCCCC1	0.2
CC1(C(=O)Nc2ccc3c(c2)OCCO3)CCN1C(=O)C1(c2ccccc2)CC1 (stereo not given)	1.1
CCCC(=O)N1CC2(C1)CN(C(=O)Nc1cccc(F)c1)[C@@H](CO)c1c2c2ccc(OC)cc2n1C	3.6
Cc1ccc(OCC(=O)N(Cc2ccco2)c2c(N)n(Cc3ccccc3)c(=O)[nH]c2=O)cc1C	4.3
C[C@H]1CN([C@@H](C)CO)C(=O)c2cccc(NC(=O)CCCCCC(=O)Nc3ccccc3N)c2O[C@@H]1CN(C)S(=O)(=O)c1ccc(Cl)cc1	-8.2

Screening data from PubChem.
